Screening data from PubChem BioAssay.
MARV entry inh = inhibitors of Marburg virus binding or cell entry; Potency, µM (titrated, usually from 37.8 µM), for inactives: at the highest dose activity change, negative = inhibition, actives largely listed as inhibitors; AID 540276; 300,000 compounds, 1.8% hits; Marburg virus pseudotyped entry inhibition, cell reporter; control for the full effect not named in the record; about a third of the inactives were read at about 46 µM; active = well fitted inhibition curve with a large enough effect; inconclusive = small, poorly fitted or top-dose-only effect, or effect the other way; inactive = flat fitted curve, though single readings scatter; tested in HEK293 cells; about a fifth of its hits are not listed in these tables; also: luciferase read-out
* hit, by the source's call; ? = inconclusive; & = joins results of further samples; [ ] = dose if it differs, or a comment. % is scaled to controls: 0 for no effect and ±100 for the full control effect; potency is read from the fitted curve at half-maximal effect. A portion of the library; the hit share may differ from the screen's.

smiles	MARV entry inh
CCOC(=O)N/N=C1\C[C@@H](O)[C@@H](O)[C@@H]2[C@@H]3C(=O)N(CC)C(=O)[C@@H]3CC[C@H]12	8%[14.2 µM]
COC1=CC2C(=O)C(C1=O)[C@H](c1ccccc1)[C@H]2C (stereo not given in full)	-3%[14.2 µM]
CCSc1nc(O)c([C@H]2OC(=O)c3c2ccc(OC)c3OC)c(=O)n1-c1ccccc1	0%
COC(=O)C1=C[C@@]2(c3ccc(F)cc3[C@@H](OC)[C@@H]2C)[C@@H]2C=C[C@H]1C2	2%[14.2 µM]
CCOC(=O)C1=CN(CCCc2cn(Cc3ccccc3)nn2)C(=O)NC1c1ccccc1 (stereo not given)	?
COc1cc(O)c(C(=O)/C=C/c2ccccc2)c(O)c1	?
CCOC(=O)CSC1=c2ccccc2=NC1c1cccs1 (stereo not given)	4%
COc1ccccc1CNS(=O)(=O)c1ccc(F)cc1Br	?
CC[C@@]1(C)Cc2c(sc3c2c(=O)n(C)c2nnc(SCc4ccc5c(c4)OCO5)n32)CO1	-17%
C[C@@H]1C=CCCO[C@]12C(=O)N(Cc1ccccc1C(F)(F)F)c1ccccc12	-12%[14.2 µM]
CNCCC[C@]12CC[C@H](C3=C1CCCC3)C1CCCCC12 (stereo not given in full)	4.6µM*
C=C(C(C)=O)C(O)C=Cc1ccco1 (stereo not given)	3%[14.2 µM]

Molecules shown so far that have sulfur (4):
smiles	MARV entry inh
CCSc1nc(O)c([C@H]2OC(=O)c3c2ccc(OC)c3OC)c(=O)n1-c1ccccc1	0%
CCOC(=O)CSC1=c2ccccc2=NC1c1cccs1 (stereo not given)	4%
COc1ccccc1CNS(=O)(=O)c1ccc(F)cc1Br	?
CC[C@@]1(C)Cc2c(sc3c2c(=O)n(C)c2nnc(SCc4ccc5c(c4)OCO5)n32)CO1	-17%

An excerpt from above in order of formula weight, highest first:
smiles	MARV entry inh
COc1ccccc1CNS(=O)(=O)c1ccc(F)cc1Br	?
COC(=O)C1=C[C@@]2(c3ccc(F)cc3[C@@H](OC)[C@@H]2C)[C@@H]2C=C[C@H]1C2	2%[14.2 µM]
CNCCC[C@]12CC[C@H](C3=C1CCCC3)C1CCCCC12 (stereo not given in full)	4.6µM*

(further entries)
smiles	MARV entry inh
COC(=O)[C@](O)(c1ccc(NC(=O)c2ccco2)c(OC)c1)C(F)(F)F	6%[46.1 µM]
CC1=C[C@@H](COc2ccccc2)O[C@@]2(C1)C(=O)N(Cc1ccccc1)c1ccccc12	?
C#CCNC(=O)[C@H]1C=C(OC)C(=O)C[C@H]2c3ccccc3C[C@]12C	8%[14.2 µM]
COc1ccc(O[C@H]2C=C[C@@H](c3ccccc3)O[C@H]2CO/N=C2/c3cc(OC)ccc3O[C@@H](c3cccc(OC)c3)[C@H]2O)cc1	?
COC(=O)C(C(=O)OC)[C@@H]1O[C@@]23COC=C[C@]2(C)[C@@H]3c2ccccc21	?
COCOc1cc(OC)ccc1C(=O)C=Cc1ccc2c(c1)OCO2	?
CC(C)CO/N=C1\C[C@@H](O)[C@@H](O)[C@@H]2[C@@H]3C(=O)N(Cc4ccc5c(c4)OCO5)C(=O)[C@@H]3CC[C@H]12	-30%[14.2 µM]
CCOC(=O)c1ccc(NC(=O)CC[C@@H](CC)C(=O)O)cc1	3%
CCOC(=O)OC[C@H]1O[C@H](c2ccccc2)C=C[C@H]1OC(=O)OCC	?
CCCCCCN1C[C@@H](O)[C@H](n2cc(-c3ccc(F)cc3)nn2)C[C@H]1c1ccccc1	?
O=C(O)[C@@H](O)c1ccco1	-11%
C=C[C@@]1(C)CCC=C2C(=O)CCC[C@H]21	?

Structural class, those above containing a thiophene ring, fused or not.
smiles	MARV entry inh
CCOC(=O)CSC1=c2ccccc2=NC1c1cccs1 (stereo not given)	4%
CC[C@@]1(C)Cc2c(sc3c2c(=O)n(C)c2nnc(SCc4ccc5c(c4)OCO5)n32)CO1	-17%

Continuation.
smiles	MARV entry inh
N#Cc1ccc2c(c1)C[C@]1(CCCCN3C(=O)c4ccccc4C3=O)OC3=C(C(=O)OC4(CCCCC4)C3)[C@H]2O1	10%[14.2 µM]
COC(=O)[C@@H]1CC23C(=NC(c4ccc([N+](=O)[O-])cc4)=C(C(F)(F)F)[C@@H]2N(C)c2ccccc23)N1C(C)=O (stereo not given in full)	8%[14.2 µM]
CC(=O)OC[C@H]1O[C@H](C/C=N/OCC[C@@H]2C=C[C@H](OC(C)=O)[C@@H](COC(C)=O)O2)C=C[C@@H]1OC(C)=O	10%[14.2 µM]
O=C(O)[C@H]1[C@H](C(=O)O)[C@H]2CC[C@@H]1O2	?
CSC1=C(C#N)[C@H](c2ccc(C)s2)CC(=O)N1	0%
C#CCCCON=C1C[C@@H](O)[C@H](O)[C@H]2[C@@H]3C(=O)N(c4ccc(F)cc4F)C(=O)[C@@H]3CC[C@H]12	-6%[14.2 µM]
CCCNC(=O)N1C2=NC(C(=O)OC)=C(C(=O)OC)[C@@H]3N(C)c4ccccc4[C@]23C[C@H]1C(=O)OC	7%[14.2 µM]
CC(=O)OC[C@@H]1O[C@H](C/C=N\OC[C@@H](O)COCc2ccco2)C=C[C@@H]1OC(C)=O	1%[14.2 µM]
C=CCOC(=O)C(C(C)=O)C(NC(=O)OC)c1cccc(C)c1 (stereo not given)	?
COC[C@H]1O[C@@H](c2c(OC)cc(OC)cc2OC)[C@H](OC)[C@@H](OC)[C@H]1OC	-10%[14.2 µM]
CCn1c(O)c(C(=O)C[C@@H]2NCCc3ccccc32)c(=O)n(CC)c1=S	-22%
CCc1cc2c(nc1CC)CCN(CC/C(C)=N/O[C@H](C)c1cn([C@H](CO)Cc3ccccc3)nn1)C2	-27%[14.2 µM]
CCOC(=O)NN=C1C[C@@H](O)[C@@H](O)[C@@H]2[C@H]3C(=O)N(Cc4ccc5c(c4)OCO5)C(=O)[C@@H]3CC[C@@H]12	-2%[14.2 µM]
C[C@H]1C[C@@H](C)O[C@@]2(C1)C(=O)N(CC1CC1)c1ccccc12	-21%[14.2 µM]
CCCC[C@]12Cc3cc(C#N)ccc3[C@H](O1)c1c(cc(-c3ccccc3)oc1=O)O2	10%[14.2 µM]
C=C(C)C(O)/C=C/c1ccccc1OC (stereo not given)	6%[14.2 µM]
COCOc1c2c(c(OCOC)c3c(OCOC)cccc13)C(=NNS(C)(=O)=O)C1=C2CCCC1	1%[14.2 µM]
COc1ccc([C@H]2/C(=C(\O)c3ccc(OC(C)C)cc3)C(=O)C(=O)N2CCCN2CCOCC2)cc1	-13%
CCN(CC)CCN1C(=O)C(O)=C(C(=O)c2cccs2)[C@@H]1c1ccccn1	14%
C=CCN1C(=O)[C@]2(OCCC=C[C@H]2C)c2c(Br)cccc21	?
COC(=O)N1C(/C=C/C=C/c2ccc(OC)cc2)=Cc2ccccc2C1CC(C)=O (stereo not given)	?
CC(C)N(C[C@@H]1CSCCS(=O)(=O)N1)C1CCCCC1	?
COc1ccc2c3c(c(=O)oc2c1)[C@H]1O[C@](c2ccsc2)(Cc2ccccc21)O3	-20%[14.2 µM]
CC(C)=CCCC(C)=CCON=C1C[C@@H](O)[C@@H](O)[C@@H]2[C@H]3C(=O)N(c4ccc(F)cc4F)C(=O)[C@@H]3CC[C@H]12	?
N#C/C(=N/O)c1nc(-c2ccccc2)cs1	15%
CC(C)[C@@H](OCc1ccccc1)[C@H](C)/C=N/OC[C@@H](C)[C@H](OCc1ccccc1)C(C)C	25%[14.2 µM]
COC(=O)c1ccc(CN2C(=O)[C@]3(OCCC=C[C@@H]3C)c3cc(OC)ccc32)cc1	-23%[14.2 µM]
COC(=O)NCC=Cc1nc(CCCO)co1	-24%[14.2 µM]
COC(=O)C1=C(C(=O)OC)[C@@H]2N(C)c3ccccc3[C@@]23CCC(=O)N(Cc2cc(OC)c(OC)c(OC)c2)C3=N1	-12%[14.2 µM]
CS(=O)(=O)CC[C@H](C(=O)n1nnc2ccccc21)N1C(=O)c2ccccc2C1=O	-5%[46.1 µM]
CC(=O)OC[C@H]1O[C@H](CC=NOC[C@@H](C)[C@H](OCc2ccccc2)C(C)C)C=C[C@@H]1OC(C)=O	-10%[14.2 µM]
C=CCN1C(=O)CC[C@@]23C1=NC(C(=O)OC)=C(C(=O)OC)[C@@H]2N(CC#CC)c1ccccc13	-20%[14.2 µM]
C#CCCCO/N=C1/C[C@@H](O)[C@@H](O)[C@@H]2[C@@H]3C(=O)N(C[C@@H]4CCCO4)C(=O)[C@H]3CC[C@H]12	4%[14.2 µM]
COc1ccc(C=CNC(=O)c2ccc(OC)cc2)cc1	18%[14.2 µM]
c1ccc([C@H]2NCCc3c2[nH]c2ccccc32)cc1	23%[14.2 µM]
COC(=O)C1=C(C)N(Cc2ccccc2)C(=NCCc2ccc(O)cc2)NC1c1ccc(Br)cc1 (stereo not given)	2%[14.2 µM]
C/C(=N\NC(=O)c1ccccc1)c1ccc(NC(=O)C(F)(F)F)cc1	0%[46.1 µM]
CCOC(=O)C1=C2C=C(OCC)C=CC2OC1c1ccccc1 (stereo not given)	-25%[46.1 µM]
COC(=O)C1=C(C(=O)OC)[C@@H]2N(Cc3ccccc3)c3ccccc3[C@@]23CCC(=O)N(CCc2ccccn2)C3=N1	?
COC1=C(C(=O)c2ccccc2)C(=O)[C@@]2(CC=C(C)C)C[C@H](C(=O)OCC(F)(F)F)C(C)(C)[C@@]1(CC=C(C)C)C2=O	?
CC(=O)OC[C@H]1O[C@H](C/C=N/OC[C@@H](C)[C@H](OCc2ccccc2)C(C)C)C=C[C@@H]1OC(C)=O	-10%[14.2 µM]
COC(=O)C1=C(C)N(Cc2ccccc2)C(=NCCc2ccccn2)NC1c1cccc(F)c1 (stereo not given)	-21%[14.2 µM]
CCOC(=O)N/N=C1/C[C@@H](O)[C@@H](O)[C@@H]2[C@H]3C(=O)N(c4ccc(F)cc4F)C(=O)[C@@H]3CC[C@@H]12	-21%[14.2 µM]
C=CCN1C(=O)[C@]2(OCCC=C[C@H]2C)c2ccccc21	-20%[14.2 µM]
COc1ccc(O[C@H]2C=C[C@@H](c3ccccc3)O[C@H]2COC(=O)CC/C(C)=N\OC[C@@H](C)[C@H](OCc2ccccc2)C(C)C)cc1	?
COC(=O)N[C@@H](c1cccc(C)c1)[C@]1(C(C)=O)CCCC1=O	3%[14.2 µM]
Cc1c(CCC#N)c(N2CCN(C3CCCCC3)CC2)n2c(nc3ccccc32)c1C#N	3%
CC#CC(C)C(OCOC)C(CC(C)Cc1cc(Br)cc(OCc2ccccc2)c1OC)OC (stereo not given)	-10%[14.2 µM]
COC(=O)N[C@H](CC(C)=O)c1cccs1	?
C=C(Br)CO[C@@H]1C=C[C@@H](c2ccccc2)O[C@@H]1COC	9%[14.2 µM]
CCOC(=O)NN=C1C[C@@H](O)[C@@H](O)[C@@H]2[C@H]3C(=O)N(c4cccc(Oc5ccccc5)c4)C(=O)[C@@H]3CC[C@@H]12	?
CC(C)CN1C(=O)N[C@@](NC(=O)c2cccnc2)(C(F)(F)F)C1=O	19%
COc1ccc(-c2nc3c(c4c2C[C@H](c2ccccc2)OC4)CN(C(=O)c2ccco2)CC3)c(C)c1	13%&13%&13%[14.2 µM]
COc1ccc(N2CCN([C@H]3CC(=O)NC3=O)CC2)cc1	-7%
COC(=O)[C@](NC(=O)c1ccccc1)(Nc1nc(C)cs1)C(F)(F)F	4%
CCCCc1cc2c(cn1)=C(OC(=O)c1ccco1)C(C)(OC(=O)CC)C(=O)C=2 (stereo not given)	?
CC(=O)c1ccc([C@@H]2C=C[C@H](O)[C@@H](CO)O2)cc1	23%&23%[14.2 µM]
C=C(CCN1C=C(C(=O)OCC)C(c2ccccc2)NC1=O)c1ccc(Cl)cc1 (stereo not given)	14%[14.2 µM]
CN1C(=S)S[C@@H](N(O)C(=O)Nc2ccccc2)C1(C)C	2%
C#CC1(O)C2C=C(OC)C(=O)C1C(c1ccccc1)C2C (stereo not given)	26%[14.2 µM]

(cont.)
smiles	MARV entry inh
COCCN1C(=O)N(C)C(c2ccccc2)C(C(C)=O)=C1C (stereo not given)	?
CC(C)C(=O)N[C@@H]1CCCN1C(=O)/C=C\c1ccccc1	-47%[14.2 µM]
O=C(O)C1CCCCC1SC1=C([S+](=O)([O-])NC2CCCCC2)CCCC1 (stereo not given)	9%[14.2 µM]
CCCCc1cc2c(cn1)=C(OC(=O)C1CCCC1)C(C)(OC(=O)CC)C(=O)C=2 (stereo not given)	?
CC(C)CON=C1C[C@@H](O)[C@@H](O)[C@@H]2[C@H]3C(=O)N(Cc4ccc5c(c4)OCO5)C(=O)[C@@H]3CC[C@@H]12	-30%[14.2 µM]
CCOC(=O)N/N=C1/C[C@@H](O)[C@@H](O)[C@@H]2[C@@H]3C(=O)N(C4CCCCC4)C(=O)[C@H]3CC[C@@H]12	20%[14.2 µM]
C[C@H]1CC[C@H]2C(=O)O[C@H](CO)CN2[C@@H]1c1ccc(Br)cc1	-20%[14.2 µM]
COc1ccc(N2C(=O)N3[C@H](c4ccccc4)[C@@H](C)C[C@H]4c5ccccc5C[C@]43C2=O)cc1	2%[14.2 µM]
CC(=O)OC[C@H]1O[C@H](CC=NOCC[C@@H]2C=C[C@@H](OC(C)=O)[C@@H](COC(C)=O)O2)C=C[C@@H]1OC(C)=O	10%[14.2 µM]
CCOC(=O)[C@@H](CC(=O)O)N1CCCCC1	2%
